Bioassay records from PubChem BioAssay.
PLK1 PBD block = inhibitors of human PLK1 polo-box domain binding; Plk1 PBD binding of FITC phosphopeptide, fluorescence polarization; Potency, µM, for inactives: max response, negative = inhibition, usual class: inhibitors; 2.8% of 360,000 active; AID 720504; further: potency means the concentration at half of the fitted maximal effect; series mostly up to about 57 µM; on the % scale 0 is the no-effect control and ±100 the full control effect; nearly all actives have a fitted effect of over 65% in size
Target sequence (P53350 whole entry, looked up, the tested form may be a part): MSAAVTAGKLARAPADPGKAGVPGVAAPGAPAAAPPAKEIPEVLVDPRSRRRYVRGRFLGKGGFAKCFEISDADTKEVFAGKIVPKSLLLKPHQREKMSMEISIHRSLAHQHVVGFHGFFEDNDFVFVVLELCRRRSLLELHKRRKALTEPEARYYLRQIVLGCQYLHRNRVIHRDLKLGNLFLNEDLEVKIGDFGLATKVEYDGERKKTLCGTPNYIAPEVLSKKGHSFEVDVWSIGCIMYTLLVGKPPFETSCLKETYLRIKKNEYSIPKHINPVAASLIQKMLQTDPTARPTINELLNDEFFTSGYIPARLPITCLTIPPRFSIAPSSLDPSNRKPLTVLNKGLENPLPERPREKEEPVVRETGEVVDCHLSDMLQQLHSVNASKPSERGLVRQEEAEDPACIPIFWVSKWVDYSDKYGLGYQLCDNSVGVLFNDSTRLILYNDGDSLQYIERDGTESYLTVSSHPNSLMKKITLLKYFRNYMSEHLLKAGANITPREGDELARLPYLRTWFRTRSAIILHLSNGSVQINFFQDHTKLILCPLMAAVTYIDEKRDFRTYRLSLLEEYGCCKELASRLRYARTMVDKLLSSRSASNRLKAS
GLP-1R agonist = GLP-1 receptor (human) agonism | Potency, µM (top dose mostly 45.6 µM), for inactives: at the highest dose activation, hits mostly activators | P43220 | HEK293 GLP-1R CRE-luciferase, luminescence, 4-6 h; cells express a hypersensitive GLP-1R form | 0.007% of 380,000 active; further: potency means the concentration at half of the fitted maximal effect; % of control where 0% means no effect
IL2 activator = activates IL-2 in a cell-based reporter assay. IL-2 activation reporter assay, cell-based qHTS; stimulated with anti-CD3/CD4/CD28 beads; in transgenic mouse T cells. activation, % (series mostly up to about 46 µM). 0.065% of 360,000 active. AID 652025; in the data active means activation above about 50%; inconclusive means mostly about 30% to 49%; further: 0% is about no effect
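Screening format: compound pinned onto unstimulated transgenic mouse T cells, 60 min incubation, then anti-CD3/anti-CD4/anti-CD28 bead stimulation for 18 hours at 37 degrees C, followed by EGFP and DsRed detection.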
GLP-1R inv ag = acts as inverse agonist at human GLP-1 receptor; P43220; AID 624417; Potency, µM (top dose mostly 38.3 µM), for the others: at the highest dose activity change, negative = inhibition, hits mostly inhibitors; 1.6% of 410,000 active; HEK293 GLP-1R CRE-luciferase, luminescence, 24 h; GLP-1R form is constitutively active; further: potency means the concentration at half of the fitted maximal effect; on the % scale 0 is the no-effect control and ±100 the full control effect; nearly all actives have a fitted effect of over 55% in size
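Readout was luciferase luminescence, measured 12 min after detection reagent at room temperature. Beforehand, GLP-1R reporter HEK293 cells had sat 12 h, then received compounds for 24 hr at 37 deg C.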
HEK293 tox = cytotoxicity counter-screen for GLP-1 receptor inverse agonists. HEK293 cAMP-luciferase reporter cells, luminescence, 24 h. Potency, µM (highest dose often 38.3 µM), without a hit: at the top dose activity change, negative = inhibition, actives largely listed as inhibitors. 0.13% of 410,000 active. AID 624418;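 further: loss of luciferase light is scored as toxicity; potency means the concentration at half of the fitted maximal effect; on the % scale 0 is the no-effect control and ±100 the full control effect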
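Seeding density was 200 cells/uL; after overnight-length (12 h) culture, 23 nL compounds went on for 24 h at 37 °C. Readout used a luciferase detection reagent, luminescence taken after 12 min at room temperature.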
PI5P4K alpha inh = PI5P4K alpha (human) kinase inhibition; P48426; PI5P4Kalpha enzyme, ADP-Glo luminescence, 60 min; stronger effect = lower value; max response, %; 1.2% of 330,000 active; AID 652105; active means max response of -50% or lower; inconclusive means between -30% and -50%; inactive means -30% or higher; further: value at the top dose of about 77 µM; on the % scale 0 is the no-effect control and ±100 the full control effect
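Controls without substrate or without enzyme flank wells where PI5P4Kalpha converts substrate using 5 microM ATP (final). Incubation lasts 60 minutes at room temperature; ADP formed is read by ADP-Glo luminescence.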
WRN helicase inh = WRN helicase (human) inhibition. AID 651768. Potency, µM (top dose mostly 114 µM), for the others: top-dose activity change, negative = inhibition, most hits filed as inhibitors. WRN helicase unwinding, fluorescent forked duplex, kinetic. Q14191. 0.46% of 360,000 active; further: potency means the concentration at half of the fitted maximal effect; on the % scale 0 is the no-effect control and ±100 the full control effect; nearly all actives have a fitted effect of over 55% in size
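Kinetic fluorescence helicase assay: unwinding of a quenched forked DNA duplex (100 nM final) with 2 mM ATP final raises red fluorescence (525/598 nm). Compounds sat 15 min at room temperature with 20 nM WRN beforehand.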
Active calls of the source: *; ? = inconclusive; . = no result given; & = joins results of further samples. Unless noted, the call rests on the fitted dose curve; in most records, active means well fitted curve in the direction sought with a large enough effect; inconclusive means small, poorly fitted or top-dose-only effect, or another doubt; inactive means no such curve, though single readings can be large; an effect the other way counts as inactive or inconclusive. Not all compounds are listed (hit frequency here may not be typical).

Abbreviations – A = PLK1 PBD block; B = GLP-1R agonist; C = IL2 activator; D = GLP-1R inv ag; E = HEK293 tox; F = PI5P4K alpha inh; G = WRN helicase inh
Molecule: CC(O)C(N)C(=O)O (stereo not given)
  A = .; B = -6.8%; C = .; D = .; E = .; F = .; G = .

Molecule: COc1ccc(C(=O)c2ccccc2O)c(O)c1
  A = -2.5%; B = 7.6%; C = 0.3; D = -5.0%; E = -8.0%; F = 4.2; G = -8.9%

Molecule: CCN[C@H]1C[C@H](C)S(=O)(=O)c2sc(S(N)(=O)=O)cc21
  A = 4.4%; B = -1.6%; C = -0.4; D = 12.2%; E = 5.9%; F = -1.0; G = -6.8%

Molecule: CC(=O)O[C@]1(C(C)=O)CCC2C3C=C(C)C4=CC(=O)CC[C@]4(C)C3CC[C@@]21C (stereo not given in full)
  A = -5.1%; B = -0.8%; C = 3.1; D = 4.5%; E = 2.7%; F = 5.4; G = -2.3%

Molecule: O=C(NCC1CCCCN1)c1cc(OCC(F)(F)F)ccc1OCC(F)(F)F (stereo not given)
  A = -4.2%; B = -7.4%&18.4%; C = -0.7; D = -29.9%; E = -3.0%; F = 0.0; G = -1.0%

Molecule: CCCNCC(O)COc1ccccc1C(=O)CCc1ccccc1 (stereo not given)
  A = 2.1%; B = -1.8%&-1.1%; C = -0.1; D = ?; E = -21.3%; F = 21.0; G = 3.1%

Molecule: O=C(O)c1ccccc1O
  A = 2.9%; B = 13.2%&-0.1%&-5.0%&-4.5%; C = 2.2; D = 6.5%; E = 3.9%; F = -1.3; G = .

Molecule: CCN(CC)CC#CCOC(=O)C(O)(c1ccccc1)C1CCCCC1 (stereo not given)
  A = -19.1%; B = 5.7%; C = 0.3; D = ?; E = 1.5%; F = -2.4; G = -11.1%

Molecule: Nc1ccc(S(N)(=O)=O)cc1
  A = -14.8%; B = 10.6%&5.4%; C = 0.2; D = 25.0%; E = 10.9%; F = -0.6; G = 3.8%

Molecule: NCCCC(O)(P(=O)(O)O)P(=O)(O)O
  A = .; B = -1.7%; C = .; D = .; E = .; F = .; G = .

Molecule: CN1CCCC1CCOC(C)(c1ccccc1)c1ccc(Cl)cc1 (stereo not given)
  A = 0.0%; B = -3.0%; C = -0.7; D = ?; E = -23.3%; F = -26.5; G = -1.8%

Molecule: CN1CCCN=C1/C=C/c1cccs1
  A = -3.9%; B = 0.7%; C = 3.5; D = 3.2%; E = 3.0%; F = -2.2; G = -29.2%

Molecule: CNNCc1ccc(C(=O)NC(C)C)cc1
  A = -4.6%; B = -4.9%&-1.7%; C = -0.1; D = -5.3%; E = 2.7%; F = 2.1; G = 4.1%

Molecule: C#C[C@]1(O)CC[C@H]2[C@@H]3CCC4=C(CCC(=O)C4)[C@H]3CC[C@@]21C
  A = -22.0%; B = 0.9%; C = 0.0; D = 0.1%; E = 4.8%; F = -0.3; G = -4.0%

Molecule: NCCc1cnc[nH]1
  A = -13.5%&-5.0%; B = 5.8%&8.3%&-2.2%; C = -0.2&-0.4; D = -62.7%&-6.2%; E = 6.4%&-7.0%; F = -0.5&-0.6; G = -4.5%&-2.6%

Molecule: COc1ccc2c(c1OC)C(=O)OC2[C@H]1c2c(cc3c(c2OC)OCO3)CCN1C (stereo not given in full)
  A = .; B = 10.9%; C = .; D = .; E = .; F = .; G = .

Molecule: CC[C@H]1OC(=O)[C@H](C)[C@@H](O[C@H]2C[C@@](C)(OC)[C@@H](O)[C@H](C)O2)[C@H](C)[C@@H](O[C@@H]2O[C@H](C)C[C@H](N(C)C)[C@H]2O)[C@](C)(O)C[C@@H](C)C(=O)[C@H](C)[C@@H](O)[C@]1(C)O
  A = 21.2µM*; B = -2.1%; C = -0.4; D = -9.0%; E = 0.0%; F = 14.9; G = 2.9%

Molecule: O=C(O)CN(CCN(CC(=O)O)CC(=O)O)CC(=O)O
  A = .; B = 6.6%; C = .; D = .; E = .; F = .; G = .

Molecule: O=c1[nH]c(=O)n(C2C[C@H](O)[C@@H](CO)O2)cc1C(F)(F)F (stereo not given in full)
  A = -6.8%; B = -2.0%&-0.6%; C = 0.2; D = ?; E = -12.9%; F = 0.2; G = -0.2%

Molecule: COc1ccc2cc(C(C)C(=O)O)ccc2c1 (stereo not given)
  A = -4.7%; B = 2.5%; C = 0.3; D = -8.4%; E = -1.2%; F = 1.9; G = 1.2%

Molecule: O=C(O)CCC(=O)C(=O)O
  A = .; B = -1.2%; C = .; D = .; E = .; F = .; G = .

An excerpt from above in order of length of the SMILES, largest number first:
Abbreviations – A = PLK1 PBD block; B = GLP-1R agonist; C = IL2 activator; D = GLP-1R inv ag; E = HEK293 tox; F = PI5P4K alpha inh; G = WRN helicase inh
Molecule: C#C[C@]1(O)CC[C@H]2[C@@H]3CCC4=C(CCC(=O)C4)[C@H]3CC[C@@]21C
  A = -22.0%; B = 0.9%; C = 0.0; D = 0.1%; E = 4.8%; F = -0.3; G = -4.0%

Molecule: COc1ccc2c(c1OC)C(=O)OC2[C@H]1c2c(cc3c(c2OC)OCO3)CCN1C (stereo not given in full)
  A = .; B = 10.9%; C = .; D = .; E = .; F = .; G = .

Molecule: O=c1[nH]c(=O)n(C2C[C@H](O)[C@@H](CO)O2)cc1C(F)(F)F (stereo not given in full)
  A = -6.8%; B = -2.0%&-0.6%; C = 0.2; D = ?; E = -12.9%; F = 0.2; G = -0.2%

Molecule: CCN(CC)CC#CCOC(=O)C(O)(c1ccccc1)C1CCCCC1 (stereo not given)
  A = -19.1%; B = 5.7%; C = 0.3; D = ?; E = 1.5%; F = -2.4; G = -11.1%

Molecule: CN1CCCC1CCOC(C)(c1ccccc1)c1ccc(Cl)cc1 (stereo not given)
  A = 0.0%; B = -3.0%; C = -0.7; D = ?; E = -23.3%; F = -26.5; G = -1.8%

Molecule: O=C(O)CN(CCN(CC(=O)O)CC(=O)O)CC(=O)O
  A = .; B = 6.6%; C = .; D = .; E = .; F = .; G = .

Molecule: CCCNCC(O)COc1ccccc1C(=O)CCc1ccccc1 (stereo not given)
  A = 2.1%; B = -1.8%&-1.1%; C = -0.1; D = ?; E = -21.3%; F = 21.0; G = 3.1%

Molecule: CNNCc1ccc(C(=O)NC(C)C)cc1
  A = -4.6%; B = -4.9%&-1.7%; C = -0.1; D = -5.3%; E = 2.7%; F = 2.1; G = 4.1%

Molecule: CN1CCCN=C1/C=C/c1cccs1
  A = -3.9%; B = 0.7%; C = 3.5; D = 3.2%; E = 3.0%; F = -2.2; G = -29.2%

Molecule: O=C(O)CCC(=O)C(=O)O
  A = .; B = -1.2%; C = .; D = .; E = .; F = .; G = .
